# Vaccinia inh: Vaccinia orthopox stage-specific inhibition. Vaccinia-infected cells, mCherry/Venus stage reporter fluorescence; hits give low values; some inactives read as strong as hits. activity change (mCherry), % (test concentration not listed). hit rate 0.01% among 89,000;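 active = mCherry past -33% and 40 or more points under the early reporter, replicates agreeing; inconclusive = past -33% without that gap or agreement; tested in A549 cells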;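 also: scaled between vehicle wells and reference inhibitor wells; 23 nL library stock went into each well; one replicate is shown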
# Vaccinia inh Venus: second read-out of Vaccinia inh, no call of its own (marks repeat the call); activity change (Venus), %; measured here: Venus reporter, other viral stage;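 negative = less Venus signal; first of two replicates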
# * hit, by the source's call; u = inconclusive; x = not tested or not shown; & = joins results of further samples. These rows are one share of the data; count on the stated rates, not on these rows.
molecule	Vaccinia inh Venus	Vaccinia inh
C[C@@H]1CN([C@@H](C)CO)C(=O)c2cc(NC(=O)Nc3cccc4ccccc34)ccc2O[C@@H](C)CCCCO[C@H]1CN(C)C(=O)c1ccccc1	4	-2
Cc1ccc(S(=O)(=O)N(C)C[C@H]2Oc3ccc(NS(C)(=O)=O)cc3C(=O)N([C@H](C)CO)C[C@H]2C)cc1	-12	-3
CCCNC(=O)Nc1ccc2c(c1)C(=O)N(C)C[C@H](OC)[C@@H](C)CN(C)[C@H](C)CO2	7	14
CCCNC(=O)N1CC2(CN(C(=O)C3CCCCC3)C2)c2c([nH]c3cc(OC)ccc23)[C@@H]1CO	9	7
CN(C)C(=O)c1ccc(-c2ccc([C@@H]3[C@H]4CN(C(=O)C5CCC5)CC(=O)N4[C@H]3CO)cc2)cc1	-16	-24
COc1ccc(NC(=O)N[C@H]2CC[C@@H](CCn3cc(C4(O)CCCC4)nn3)O[C@@H]2CO)cc1	6	8
COc1ccccc1NC(=O)N1CC(=O)N2[C@H](CO)[C@@H](c3ccc(C#Cc4ccc(F)cc4)cc3)[C@H]2C1	x	u
C[C@@H]1CN([C@H](C)CO)C(=O)c2cc(NS(=O)(=O)c3ccc(F)cc3)ccc2O[C@@H]1CN(C)S(=O)(=O)c1cn(C)cn1	8	12
CC(=O)N1[C@@H](CO)[C@@H](c2ccccc2)C12CN(C(=O)CN1CCOCC1)C2	16	12
C[C@@H]1CN([C@@H](C)CO)C(=O)c2cc(NC(=O)CCC(F)(F)F)ccc2O[C@@H](C)CCCCO[C@@H]1CN(C)Cc1ccc(C(=O)O)cc1	11	13
CO[C@@H]1CN(C)C(=O)c2ccc(NC(=O)C3CC3)cc2OC[C@@H](C)N(C(=O)c2ccncc2)C[C@@H]1C	8	7
CCC(=O)N1CC(=O)N2[C@H](CO)[C@H](c3ccc(-c4ccc(C#N)cc4)cc3)[C@@H]2C1	14	21
N#C[C@@H]1[C@H](c2ccccc2-c2ccccc2)[C@@H](CO)N1C(=O)Cc1cccnc1	2	-5
CO[C@H]1CN(C)C(=O)c2ccc(NC(=O)C3CC3)cc2OC[C@H](C)N(C(=O)CN(C)C)C[C@H]1C	13	8
CC1C=NC(S(=O)(=O)N2CC[C@@H]3[C@H](CO)N(C)c4ccc(-c5ccccc5F)cc4[C@@H]32)=N1 (stereo partly drawn)	-11	-13
O=C(Cc1ccncc1)NCC[C@@H]1CC[C@@H](NC(=O)C2CCC2)[C@@H](CO)O1	18	18
CNC[C@H]1Oc2ccc(NC(=O)Cc3cn(C)c4ccccc34)cc2CC(=O)N([C@@H](C)CO)C[C@@H]1C	1	6
O=C(C[C@@H]1C[C@H]2c3cc(NC(=O)NC4CCCC4)ccc3O[C@H]2[C@@H](CO)O1)NC1CCCC1	1	9
CCC(=O)Nc1ccc2c(c1)C(=O)N(C)C[C@@H](OC)[C@H](C)CN(C(=O)c1ccccc1F)[C@@H](C)CO2	14	16
C[C@H]1CN([C@@H](C)CO)C(=O)c2cc(NS(=O)(=O)c3ccc(F)cc3)ccc2O[C@H]1CN(C)C(=O)Nc1ccc(F)cc1	13	21
COc1ccc(CN(C)C[C@@H]2Oc3ccc(NS(=O)(=O)c4ccc(OC)cc4)cc3CC(=O)N([C@@H](C)CO)C[C@@H]2C)cc1	-16	-12
C[C@@H]1CCCCO[C@@H](CN(C)Cc2ccc(C(=O)O)cc2)[C@@H](C)CN([C@@H](C)CO)C(=O)c2cc(NS(=O)(=O)c3ccc(Cl)cc3)ccc2O1	8	16
C[C@@H]1CN([C@@H](C)CO)C(=O)c2cc(C#Cc3ccccn3)cnc2O[C@H]1CN(C)Cc1cccnc1	20	23
CC(C)NC(=O)Nc1cccc2c1O[C@H](CN(C)Cc1ccc(Cl)c(Cl)c1)[C@@H](C)CN([C@H](C)CO)C2=O	-13	-10
CC(C)C#Cc1cnc2c(c1)C(=O)N([C@@H](C)CO)C[C@@H](C)[C@H](CN(C)C(=O)CCN1CCCCC1)O2	-2	8
CO[C@@H]1CN(C)C(=O)c2ccc(NC(=O)C3CCC3)cc2OC[C@@H](C)N(Cc2cccnc2)C[C@H]1C	5	7
COc1ccc(CN(C)C[C@H]2OCCCC[C@@H](C)Oc3ccc(NC(=O)NC(C)C)cc3C(=O)N([C@H](C)CO)C[C@@H]2C)cc1	12	11
C[C@H](NC(=O)[C@@H]1[C@@H](CO)[C@@H]2Cn3c(ccc(-c4ccccc4)c3=O)[C@H]1N2C)c1ccccc1	-7	2
COc1ccc(COC[C@]23NC(=O)N[C@H](c4ccccc4O2)[C@H]3CO)cc1	3	0
CN1C(=O)c2cc(NC(=O)c3ccc(F)c(F)c3)ccc2OC[C@@H]2O[C@H](CC(=O)N3CCCCC3)CC[C@@H]21	-17	-27
COCC(=O)Nc1ccc2c(c1)C(=O)N(C)[C@@H]1CC[C@@H](CC(=O)NCc3ccccc3F)O[C@H]1CO2	6	6
CN(C)C(=O)c1cccc(-c2ccccc2[C@H]2[C@H](C#N)N(C(=O)C3CCC3)[C@H]2CO)c1	14	15
C[C@H]1CCCCO[C@@H](CN(C)Cc2ccncc2)[C@@H](C)CN([C@@H](C)CO)C(=O)c2cc(NS(=O)(=O)c3cn(C)cn3)ccc2O1	11	17
CC=Cc1ccc2n(c1=O)C[C@H]1[C@H](CO)[C@@H](C(=O)NC3CCCC3)N[C@@H]21 (mixture of isomers)	4	11
CC(C)NC(=O)N(C)C[C@@H]1OCCCC[C@@H](C)Oc2ccc(NC(=O)C3CCCCC3)cc2C(=O)N([C@@H](C)CO)C[C@@H]1C	4	15
CCC(=O)N(C)C[C@H]1N[C@@H](CO)[C@H]1c1ccc(-c2cccc(C#N)c2)cc1	7	2
C[C@H]1CN([C@@H](C)CO)C(=O)c2cc(NC(=O)CCN3CCOCC3)ccc2O[C@H]1CN(C)C	1	5
CCC(=O)N[C@H]1C=C[C@H](CC(=O)NCc2ccccc2OC)O[C@@H]1CO	0	-7
Cc1ccccc1-c1cnc2c(c1)C(=O)N([C@H](C)CO)C[C@@H](C)[C@H](CN(C)C(=O)c1ccccc1)O2	-12	-10
COc1ccc(-c2cnc3c(c2)C(=O)N([C@H](C)CO)C[C@@H](C)[C@H](CN(C)C(=O)NC2CCCC2)O3)cc1	1	3

# Compound profiles, from the list above. Screens in order: Vaccinia inh Venus | Vaccinia inh
# Cc1ccc(S(=O)(=O)N(C)C[C@H]2Oc3ccc(NS(C)(=O)=O)cc3C(=O)N([C@H](C)CO)C[C@H]2C)cc1 as listed: -12 | -3
# COc1ccc(CN(C)C[C@@H]2Oc3ccc(NS(=O)(=O)c4ccc(OC)cc4)cc3CC(=O)N([C@@H](C)CO)C[C@@H]2C)cc1 as listed: -16 | -12
# C[C@H]1CCCCO[C@@H](CN(C)Cc2ccncc2)[C@@H](C)CN([C@@H](C)CO)C(=O)c2cc(NS(=O)(=O)c3cn(C)cn3)ccc2O1 as listed: 11 | 17
# COc1ccccc1NC(=O)N1CC(=O)N2[C@H](CO)[C@@H](c3ccc(C#Cc4ccc(F)cc4)cc3)[C@H]2C1 as listed: x | u
# C[C@H](NC(=O)[C@@H]1[C@@H](CO)[C@@H]2Cn3c(ccc(-c4ccccc4)c3=O)[C@H]1N2C)c1ccccc1 as listed: -7 | 2

# Next section:
molecule	Vaccinia inh Venus	Vaccinia inh
CO[C@H]1CN(C)C(=O)c2ccc(NC(=O)NC(C)C)cc2OC[C@@H](C)N(Cc2ccccn2)C[C@@H]1C	6	8
C[C@@H]1CN([C@@H](C)CO)C(=O)CCCn2cc(nn2)CO[C@H]1CN(C)C(=O)Nc1ccccc1F	20&2	4&3
CC(C)NC(=O)N(C)C[C@H]1Oc2ncc(C#CC3CC3)cc2C(=O)N([C@H](C)CO)C[C@@H]1C	1	8
C[C@H]1CN([C@@H](C)CO)C(=O)c2cccc(NS(=O)(=O)c3ccccc3)c2O[C@H]1CN(C)Cc1ccc(C(=O)O)cc1	15	11
OC[C@H]1[C@H](c2ccccc2)C2(CN(Cc3cccnc3)C2)N1Cc1ccncc1	13	9
CO[C@@H](CN(C)C(=O)c1ccccc1F)[C@@H](C)CN([C@@H](C)CO)S(=O)(=O)c1ccc(Cl)cc1	7	6
C[C@@H]1CN([C@@H](C)CO)C(=O)c2cc(NC(=O)Nc3ccccc3)ccc2O[C@@H](C)CCCCO[C@@H]1CN(C)Cc1ccccc1	x	u
C[C@@H]1CCCCO[C@@H](CN(C)C(=O)c2ccncc2)[C@@H](C)CN([C@@H](C)CO)C(=O)c2cc(NC(=O)C3CCCCC3)ccc2O1	2	5
COc1ccc2c3c([nH]c2c1)[C@H](CO)N(Cc1ccccc1F)CC31CCN(CC2CC2)CC1	x	u
Cc1ccc(S(=O)(=O)N[C@@H]2CC[C@H](CCNC(=O)C3CCCC3)O[C@@H]2CO)cc1	24	2
C[C@@H]1CN([C@@H](C)CO)C(=O)c2ccccc2-c2ccccc2CO[C@H]1CN(C)C(=O)Nc1ccnc(N2CCOCC2)c1	-9	-8
C[C@@H]1CN([C@@H](C)CO)C(=O)c2cccc(NC(=O)c3ccncc3)c2O[C@H]1CN(C)CC1CCCCC1	8	5
C/C=C/c1cnc2c(c1)C(=O)N([C@@H](C)CO)C[C@@H](C)[C@@H](CN(C)C(=O)CN1CCOCC1)O2	7	6
Cc1ccc(S(=O)(=O)N[C@@H]2CC[C@H](CCNC(=O)c3ccccc3F)O[C@@H]2CO)cc1	-3	-6
C[C@H]1CN([C@@H](C)CO)C(=O)c2cccc(NC(=O)Nc3ccc(C(F)(F)F)cc3)c2O[C@@H]1CN(C)Cc1ccc(Cl)c(Cl)c1	-15	-16
Cc1noc(C)c1S(=O)(=O)N(C)C[C@@H]1Oc2ccc(N(C)C)cc2CC(=O)N([C@@H](C)CO)C[C@@H]1C	7	5
COc1ccc(S(=O)(=O)Nc2ccc3c(c2)C(=O)N([C@H](C)CO)C[C@H](C)[C@H](CN(C)Cc2ccccc2)O3)cc1	-1	-4
CNC[C@@H]1Oc2ccc(NC(=O)Cc3ccccc3)cc2C(=O)N([C@@H](C)CO)C[C@@H]1C	9	5
CO[C@H]1CN(C)C(=O)c2ccc(NS(=O)(=O)c3cn(C)cn3)cc2OC[C@H](C)N(CCC(F)(F)F)C[C@@H]1C	11	4
CCCNC(=O)N1C[C@@H](C)[C@H](OC)CN(C)C(=O)c2ccc(NC(C)=O)cc2OC[C@H]1C	9	13
COc1ccccc1-c1cn(CC[C@H]2CC[C@H](NC(=O)CCN3CCCCC3)[C@@H](CO)O2)nn1	6	7
C[C@@H]1CN([C@H](C)CO)C(=O)Cc2cc(NC(=O)Nc3ccc4c(c3)OCO4)ccc2O[C@H]1CN(C)Cc1ccc(Oc2ccccc2)cc1	-5	-13
C[C@H](CO)N1C[C@H](C)[C@@H](CN(C)C(=O)c2cccc(F)c2)Oc2cc(-c3cccc(F)c3)ccc2S1(=O)=O	-30	-35
CCC(=O)N1C[C@H](O)COC[C@H]2O[C@H](CC(=O)NCC3CCCCC3)CC[C@@H]21	7	11
COc1ccc2c3c(n(C)c2c1)[C@H](CO)N(C(=O)C1CC1)CC31CCN(CC2CCCC2)CC1	-10	-11
CN1C(=O)c2cc(NS(=O)(=O)c3ccc(Cl)cc3)ccc2OC[C@@H]2O[C@@H](CC(=O)N3CCc4ccccc4C3)CC[C@@H]21	-13	-20
CCC(=O)N1C[C@@H](C)[C@@H](OC)CN(C)C(=O)c2ccc(NC(=O)c3cnccn3)cc2OC[C@H]1C	15	13
C[C@H](CO)N1C[C@H](C)[C@@H](CN(C)Cc2ccc(C(=O)O)cc2)Oc2c(NC(=O)c3ccncc3)cccc2C1=O	-8	3
CN(C)Cc1cn(CC[C@H]2CC[C@@H](NS(=O)(=O)c3ccccc3)[C@@H](CO)O2)nn1	0	0
C[C@H](CO)N1C[C@H](C)[C@H](CN(C)CC2CCCCC2)Oc2c(NS(=O)(=O)c3cccs3)cccc2C1=O	-4	-10
Cc1noc(C)c1NC(=O)Nc1ccc2c(c1)C(=O)N([C@@H](C)CO)C[C@H](C)[C@@H](CN(C)Cc1ccc(Oc3ccccc3)cc1)O2	-1	5
C[C@H](CO)N1C[C@H](C)[C@H](CN(C)S(=O)(=O)c2cn(C)cn2)Oc2ccc(NC(=O)Nc3cccc4ccccc34)cc2C1=O	10	38
CN1C(=O)c2cc(NC(=O)Cc3cccs3)ccc2OC[C@@H]2O[C@@H](CC(=O)O)CC[C@H]21	7	6
CCCNC(=O)N1CC2(CN(Cc3ccc(F)cc3)C2)c2c([nH]c3cc(OC)ccc23)[C@@H]1CO	-21	-23
O=S(=O)(c1ccccc1)N1CCCCN2[C@H](CO)[C@H](c3ccc(C#Cc4ccccn4)cc3)[C@H]2C1	-4	0
Cc1ccc(S(=O)(=O)N(C)C[C@@H]2OCCCC[C@H](C)Oc3ccc(NC(=O)Nc4cccc5ccccc45)cc3C(=O)N([C@H](C)CO)C[C@@H]2C)cc1	2	10
C[C@H]1CN([C@@H](C)CO)S(=O)(=O)c2ccc(C3=CCCC3)cc2O[C@H]1CN(C)C(=O)C1CCCCC1	7	-7
C[C@@H]1CCCCO[C@@H](CN(C)S(=O)(=O)c2ccccc2)[C@H](C)CN([C@@H](C)CO)C(=O)c2cc(NC(=O)CCC(F)(F)F)ccc2O1	-11	-10
O=C(C[C@@H]1CC[C@H]2[C@@H](COC[C@H](O)CN2C(=O)Nc2ccc(F)cc2)O1)NC1Cc2ccccc2C1	-15	-10

# Entries shown so far with a thiophene ring, fused or not, in the order listed:
molecule	Vaccinia inh Venus	Vaccinia inh
C[C@H](CO)N1C[C@H](C)[C@H](CN(C)CC2CCCCC2)Oc2c(NS(=O)(=O)c3cccs3)cccc2C1=O	-4	-10
CN1C(=O)c2cc(NC(=O)Cc3cccs3)ccc2OC[C@@H]2O[C@@H](CC(=O)O)CC[C@H]21	7	6

# Compound activity as filed in PubChem BioAssay.
